NPYLR7 agonist: mosquito NPYLR7 agonism; HEK293T NPYLR7/Galpha15, GCaMP6s calcium fluorescence; activation, % at 10 µM; 270,000 tested, 0.15% active; in the data active = activation above about 40%;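 note: 0% = vehicle and 100% = reference agonist at the receptor; some compounds past the cut are filed as inactive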
NPYLR7 agonist max-min: further read-out of NPYLR7 agonist, marked with its call; activation, %; measured here: Max-Min RFU normalised activation; some inactives read as strong as hits;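 span of the calcium signal over five minutes; 0% = vehicle and 100% = native peptide agonist; compound fluorescence can raise it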
The depositor's hits bear a star; & = joins results of further samples.

Results follow in this order: NPYLR7 agonist | NPYLR7 agonist max-min
1	COc1ccc(C2=NN(C(=O)c3cccs3)C(c3ccc4nccnc4c3)C2)cc1OC (stereo not given)
    1 | 14
2	Cc1nc2n(n1)C(=O)C(C(c1ccc(F)c(F)c1)N1CCCC(C)C1)S2 (stereo not given)
    1 | 0
3	COCCCN(CC(=O)N(CCc1ccccc1)Cc1ccc(C)o1)C(=O)c1ccc(OC)cc1
    -3 | -5
4	CN(C)C(=O)c1ccc(NCc2ccc(C#N)cc2)cc1Cl
    17 | 13
5	O=C1OC2C=CC(Br)=CC2C=C1C(=O)N1CCSC1c1ccc2c3c(cccc13)CC2 (stereo not given)
    0 | -3
6	CN(C)C(CNC(=O)/C=C/c1cccs1)c1ccsc1 (stereo not given)
    8 | 3
7	CN(CCc1ccccn1)c1ncccc1CNC(=O)c1ccc(=O)n(C)c1
    1 | 4
8	CCCS(=O)(=O)Nc1ccc(N(C)C)c(CN(Cc2ccco2)C(=O)C(C)(C)C)c1
    -4 | -3
9	CCOC(=O)C1(Cc2ccccc2)CCCNC1 (stereo not given)
    6 | 4
10	O=C1CC(c2ccccc2)CC2=Nc3ccccc3NC(c3c(Cl)cccc3Cl)C12 (stereo not given)
    -9 | -14
11	COc1ccc(Nc2oc(-c3ccc(S(=O)(=O)N(C)C)cc3)nc2C#N)cc1
    1 | 21
12	O[C@H]1[C@H](NCc2ccccc2)[C@H]2CO[C@H](O2)[C@@H]1Sc1ccccc1
    -9 | -18
13	CCn1c(SCC(=O)Nc2cc(OC)ccc2OC)nc2c(-c3ccccc3)c[nH]c2c1=O
    1 | -3
14	Cc1cccc(-n2nc3c4nonc4ccc3[n+]2[O-])c1C
    15 | 10
15	O=C1OC(CNS(=O)(=O)c2cccs2)CN1c1ccc2c(c1)OCO2 (stereo not given)
    4 | 4
16	Cc1cc(C)c2c(=O)[nH]c(SCC(=O)c3cccs3)nc2n1
    -10 | -14
17	Cc1ccc(-n2c(SCc3ccc(F)cc3)nnc2C(C)NC(=O)c2ccccc2Br)cc1 (stereo not given)
    17 | 20
18	CCN(CC)S(=O)(=O)c1ccc(OC)c(N2CCN(S(=O)(=O)c3cccc(C(F)(F)F)c3)CC2)c1
    4 | 3
19	Cc1ccc(Cc2nc(N3CCCN(S(=O)(=O)/C=C/c4ccccc4)CC3)c3c(C)nn(-c4ccccc4)c3n2)cc1
    10 | 12
20	COc1ccc(Br)c(C(=O)Nc2cc(C(=O)Nc3ccc(Cl)cc3)ccc2N2CC3CC(C2)c2cccc(=O)n2C3)c1 (stereo not given)
    -7 | -1
21	COc1ccc(NS(=O)(=O)c2cc(Br)ccc2Br)cc1
    -7 | -11
22	Cc1cc(C)n(C(C)CNS(=O)(=O)c2ccccc2)n1 (stereo not given)
    5 | 1
23	Clc1ccc(C2=NN3C(C2)c2ccccc2OC32CCCCC2)cc1 (stereo not given)
    5 | 5
24	CNc1snc(C)c1C(=O)OCC(=O)NCCCc1ccccc1
    -2 | -9
25	O=C(NCc1ccc(-c2ncc(-c3ccc(F)cc3)[nH]2)cc1)c1ccc(C(F)(F)F)c(F)c1
    23 | 30
26	CCOc1ccccc1OCCOc1ccccc1
    -1 | -3
27	Cc1nnnn1-c1cc(NC(=O)NCCc2ccccn2)ccc1F
    3 | 2
28	O=C(NC1CCN(c2ccccc2C(=O)NCc2cccc(C(F)(F)F)c2)CC1)c1ccco1
    25 | 33
29	O=C1OC(c2cccc([N+](=O)[O-])c2)=N/C1=C\C=C\c1ccccc1
    3 | -1
30	CN[C@@H]1[C@@H](O[C@H]2O[C@H](CO)[C@@H](N)[C@H](O)[C@H]2O)O[C@H]2C[C@@H](N)[C@H](O[C@H]3[C@H](O)[C@@H](O)[C@H](N)C[C@@H]3N)O[C@@H]2[C@@H]1O
    1 | -8
31	CC1CCc2c(sc3c2c2nnnn2c2nnnn32)C1 (stereo not given)
    -2 | -3
32	Cc1ccc(NC(=O)N2CCCC(OCc3cccc(C(F)(F)F)c3)C2)cc1 (stereo not given)
    -3 | 5
33	COc1ccc(C(=O)NC(C(=O)N2CCCCC2)C2CCN(C(=O)Nc3ccc(C)cc3)CC2)cc1 (stereo not given)
    7 | 10
34	C/C(=C\c1ccccc1)C1CC(=O)Nc2cc(O)c(C)cc21 (stereo not given)
    0 | 2
35	Cn1cc(CN(Cc2ccc(CO)o2)C2CC2)cn1
    -5 | -8
36	Cc1[nH]n(-c2ccc(F)cc2)c(=O)c1CCC(=O)Nc1cccc(C(C)C)c1
    8 | 5
37	CC(NC(=O)CCn1ccc2ccccc21)c1ccc(S(C)(=O)=O)cc1 (stereo not given)
    7 | 1
38	Cc1nc2ccccc2c(C)c1CC(=O)NC1CCCCC1
    1 | 0
39	COc1ccc(C(=O)Nc2cccc(NC(=O)c3ccc(Cl)cc3)c2)cc1[N+](=O)[O-]
    -8 | -13
40	O=C(NCCc1nncn1C1CC1)c1cnn(Cc2ccccc2)c1
    3 | -1
41	CC(C)CCCC(C)[C@H]1CCC2C3CC[C@H]4CC(=O)CC[C@]4(C)C3CC[C@@]21C (stereo not given in full)
    -8 | -9
42	C=C1C[C@]23C[C@@]1(O)CC[C@H]2[C@@]12C=C[C@H](O)[C@](C)(C(=O)O1)[C@H]2[C@@H]3C(=O)O
    -5 | -10
43	COc1cc(C=Cc2ccc3ccccc3n2)cc(Cl)c1OC
    -4 | -4
44	Cc1nn(C(C)C(=O)NC2CCCC(C)C2C)c(=O)c2cc3occc3n12 (stereo not given)
    0 | 0
45	CCCCN(C(=O)Cn1nc(C)c([N+](=O)[O-])c1C)C(C)CC (stereo not given)
    5 | 12

Entries of single compounds, quoted from the list. Order of screens: NPYLR7 agonist, NPYLR7 agonist max-min
O[C@H]1[C@H](NCc2ccccc2)[C@H]2CO[C@H](O2)[C@@H]1Sc1ccccc1 reads -9, -18
COc1cc(C=Cc2ccc3ccccc3n2)cc(Cl)c1OC reads -4, -4
COc1ccc(C2=NN(C(=O)c3cccs3)C(c3ccc4nccnc4c3)C2)cc1OC (stereo not given) reads 1, 14

Taken from above.
O=C(NCc1ccc(-c2ncc(-c3ccc(F)cc3)[nH]2)cc1)c1ccc(C(F)(F)F)c(F)c1 – NPYLR7 agonist = 23
O=C1OC2C=CC(Br)=CC2C=C1C(=O)N1CCSC1c1ccc2c3c(cccc13)CC2 (stereo not given) – NPYLR7 agonist max-min = -3
COc1ccc(C2=NN(C(=O)c3cccs3)C(c3ccc4nccnc4c3)C2)cc1OC (stereo not given) – NPYLR7 agonist max-min = 14

(more compounds)
Results follow in this order: NPYLR7 agonist | NPYLR7 agonist max-min
46	Cc1c(C(=O)Nc2ccc3oc(=O)ccc3c2)nnn1-c1cccc(Cl)c1
    -3 | -7
47	O=C(NC1CCCCC1)C1c2ccccc2C(=O)N1Cc1cccs1 (stereo not given)
    7 | 3
48	Cc1ccc2cc(CCNC(=O)CC3CCCCC3)c(=O)[nH]c2c1
    1 | 27
49	Cc1ccc(C2(O)CCN(C(=O)c3ccc(-c4ccccc4)[nH]3)CC2)nc1
    1 | -2
50	CC(C)C[C@H]1CN(C(=O)CCC(=O)Nc2nncs2)CC[C@@]1(C)O
    0 | -5
51	CCOC(=O)c1c(C)nn(-c2ccc(C(=O)NCCCCc3ccccc3)cc2)c1C
    15 | 9
52	CCc1ccc(C(C2Sc3nc(CC)nn3C2=O)N2CCC(C(N)=O)CC2)cc1 (stereo not given)
    -4 | -7
53	CCNC(=S)N1CCC(C(NC(=O)c2cccs2)C(=O)NCCOC)CC1 (stereo not given)
    8 | 6
54	CC1CCN(C(=O)c2cc(N)ccc2N2CCC(C)CC2)CC1
    6 | 11
55	O=C(NC1CCN(c2ccccc2C(=O)NCc2ccco2)CC1)c1ccc(Br)cc1
    -3 | 3
56	CCc1cccc2c(C=NOCc3ccc(C)cc3)c[nH]c12
    -3 | -4
57	Cc1ccc(Oc2ccc3ncccc3c2N)c(Br)c1
    -1 | -9
58	Cc1nc2n(n1)C(=O)C(C(c1ccc(F)cc1)N1CC(C)OC(C)C1)S2 (stereo not given)
    5 | 4
59	CC(C)(C)CC(C)(C)Nc1c(/C=C/c2ccccc2)nc2c(OCc3ccccc3)cccn12
    -5 | -4
60	COc1cccc(Cc2nsc(N(CC(=O)O)Cc3ccccc3)n2)c1
    13 | 10
61	Cc1cc(N2CCCn3nc(C(=O)NC4CC4)cc3C2)nc(-c2cccnc2)n1
    21 | 13
62	COc1cc(-c2ccccc2Cl)ccc1NC(C)=O
    -3 | 4
63	CC(C)c1nccc(-c2nccn2CCN2CCCC2=O)n1
    0 | -5
64	CCn1ccc2c(cnc3ccnn32)c1=O
    0 | -2
65	O=C(c1ccc2c(c1)OCO2)C1CCCN(C(=O)Cn2c(=O)oc3ccccc32)C1 (stereo not given)
    -3&4 | -3&-1
66	CC1(C(=O)Nc2cccc3c2CCCC3)CCN1C(=O)CCc1cccs1 (stereo not given)
    -5 | -4
67	Cn1c(=O)[nH]c(=O)c2c1nc(N1CCN(Cc3ccccc3Cl)CC1)n2CCc1ccccc1
    -9 | -9
68	NC(=O)C(C(=O)C=Cc1ccc(F)cc1)=C1SCS1
    -4 | -6
69	Cc1nc2c(=O)n(CC(=O)Nc3ccc(C(N)=O)cc3)nc(-c3ccccc3)c2s1
    2 | 2
70	Cc1cc(N(C)CCc2noc(C(C)C)n2)nc(-c2cccnc2)n1
    0 | -3
71	Cc1ccc(-c2nc(=S)n(CN3CCCC(CNS(C)(=O)=O)C3)[nH]2)cc1 (stereo not given)
    7 | 6
72	COc1cc(C(=O)Nc2nc(C)cs2)cc2c1OC(C)C2 (stereo not given)
    9 | 4
73	O=c1ccc(-c2ccccc2)nn1CCCNS(=O)(=O)c1cccs1
    -1 | -1
74	Cc1cccc(CSc2ncc(CO)n2CC(=O)NCc2ccc(Cl)cc2)c1
    2 | -1
75	CCCc1ccc(S(=O)(=O)N2CCC3(CC2)[C@H](C(=O)OCC)[C@@H](OC)C(=O)N3C)cc1
    25 | 24
76	CNC(=O)NC(=O)C(Sc1cccc(C(F)(F)F)c1)c1ccccc1 (stereo not given)
    10 | 1
77	COc1cc(=O)n(-c2ccc(C)cc2)nc1C(=O)N1CCN(c2ccccc2)CC1
    -3 | -3
78	Cc1ccc(-n2nc(-c3ccccc3F)cc2C(=O)O)c(C)c1
    14 | 23
79	O=C(Cn1nnc2sc3c(c2c1=O)CCCC3)N1CCCC1
    -2 | -7
80	CCn1c(C(Cl)=Cc2cc(OC)cc(OC)c2)nc2cc(S(=O)(=O)N3CCOCC3)ccc21
    3 | 4
81	FC(F)(F)C1CN(c2nc(-c3ccccc3)no2)CCO1 (stereo not given)
    4 | 2
82	COc1cccc(-c2nc3ccccn3c2NC(=O)c2cccc(F)c2)c1
    -11 | -2
83	CCc1nc(SCC(=O)N2CCCC3(CCNCC3)CC2)n[nH]1
    5 | 4
84	CC(C)NC(=O)N1CCCC(OCc2cc(F)cc(F)c2)C1 (stereo not given)
    0 | 0
85	CC(=O)NCCc1ccc(C(=O)Cn2cnc3ccc(Cl)cc3c2=O)cc1
    -1 | 0
86	N#Cc1ccccc1S(=O)(=O)N1CCN(c2nc3nccc(-c4ccc(Cl)c(Cl)c4)n3n2)CC1
    6 | 8
87	COc1ccc(CN2CCC2(C)C(=O)Nc2ccc(OC)c(OC)c2)cc1 (stereo not given)
    4 | -1
88	CC1=CC[C@@H]2CN(C(=O)c3ccc(Cn4nc(C)cc4C)cc3)C[C@@H]2C1
    5 | 3
89	Cc1cccc2sc(N(CCCn3ccnc3)C(=O)c3ccc(Cl)s3)nc12
    -10 | -12
90	CS(=O)(=O)N1CCN(C(=O)Cc2cc(=O)[nH]c(SCc3ccccc3F)n2)CC1
    -13 | -17

From compound 1 up to 3, as listed above:
Results follow in this order: NPYLR7 agonist | NPYLR7 agonist max-min
1	COc1ccc(C2=NN(C(=O)c3cccs3)C(c3ccc4nccnc4c3)C2)cc1OC (stereo not given)
    1 | 14
2	Cc1nc2n(n1)C(=O)C(C(c1ccc(F)c(F)c1)N1CCCC(C)C1)S2 (stereo not given)
    1 | 0
3	COCCCN(CC(=O)N(CCc1ccccc1)Cc1ccc(C)o1)C(=O)c1ccc(OC)cc1
    -3 | -5

(further entries)
Results follow in this order: NPYLR7 agonist | NPYLR7 agonist max-min
91	CCCCN1CCCCC1(C)C(=O)NCc1cc(F)ccc1F (stereo not given)
    6 | 3
92	O=C(NC12CC3CC(CC(C3)C1)C2)N1CCc2nc(Cc3cccc(F)c3)nc(N3CCOCC3)c2C1
    -5 | 5
93	CN(C)CCN(Cc1nccn1Cc1cccc(Cl)c1)C(=O)c1ccco1
    1 | 13
94	Cc1ccc(Nc2nc(-c3ccccc3)[n+](C=C(Cl)Cl)s2)cc1
    -2 | -7
95	CCOC(=O)c1cnc2nc(C)nn2c1-c1ccccc1
    -5 | -14
96	O=C(NCCNC(=O)C1CCN(C(=O)c2cccs2)CC1)c1ccccc1
    10 | 19
97	CN1CCN(N=Cc2ccc(OC(F)F)cc2OC(F)F)CC1
    6 | 6
98	COC(=O)C(C)Sc1nnc2n1CCN2c1ccc(OC)cc1 (stereo not given)
    4 | 3
99	O=C(O)C1C2C=CC3(CN(c4ccc(Cl)c(F)c4)C(=O)C13)O2 (stereo not given)
    3 | -3
100	Cc1nc2nc3ccn(Cc4ccccn4)c(=O)c3c(-c3ccccc3)n2n1
    3 | 1
101	Nc1ccc(C2CCCc3nonc32)c2nonc12 (stereo not given)
    6 | 3
102	Cc1cccc(CS(=O)CC(=O)NCCCOC(C)C)c1 (stereo not given)
    1 | -1
103	COCCn1cc(NC(=O)NCCCN(C)C)c2ccccc21
    12 | 4
104	O=C(COc1ccc(Cl)cc1)Oc1coc(CSc2ncccn2)cc1=O
    -10 | -4
105	CC(=O)N(c1cccc(C(F)(F)F)c1)c1nc(C=CC(=O)Nc2ccccc2)cs1
    6 | 5
106	CCCCCNC(=O)c1ccc(N2CCN(C(C)C)CC2)cc1
    1 | -1
107	CCCCn1c(CN(C)Cc2ccon2)cnc1S(=O)(=O)C1CCCCC1
    3 | 1
108	CCOc1ccccc1CNC(=O)c1cnc2c(-c3cc(OC)c(OC)c(OC)c3)cnn2c1C
    -10 | 1

The list is partial; rates above refer to the full screens.
